Autofluor counter = flagged as autofluorescent in microsphere protease counterscreen | compound autofluorescence counterscreen, microsphere flow cytometry; hits give high values | fluorescence intensity (test concentration not listed) | 360,000 compounds, 3.1% hits | AID 624483;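 active means at least 3 SD above the mean of all compounds, about 16000 in these data; inconclusive means too few beads counted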;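 further: 100 nL of 1 mM stock went into each well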
Mtb hypoxia rep = PubChem AID 1159583. M. tuberculosis hypoxia-regulated fluorescent reporter, fluorescence. fluorescence inhibition, % (test concentration not listed). 300,000 compounds, 0.1% hits;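 active means 35 to 45% if threefold the growth effect, above 45% if 1.5-fold the growth effect; inactive means the rest, general growth blockers included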;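 further: wells of about 50 µL received 100 nL stock; 0% = vehicle wells and 100% = reference inhibitor wells; whole bacteria with a GFP reporter of the hypoxia response; strong numbers were not always called active; many hits fall short of the cut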
ugtP null kill = growth inhibition of ugtP-null S. aureus, primary screen, RN4220 ugtP deletion, OD600. 16 h; some inactives read as strong as hits. growth inhibition, % (test concentration not listed). 330,000 compounds, 0.54% hits;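 active means z-score under -3 and OD600 up to 0.15 on both plates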;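 further: plate controls were untreated wells for no effect and antibiotic for full effect; wells of about 80 µL received 100 nL stock; the first replicate is given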
BJeLR lethal = MLPCN primary cell-based screen for lethality selective to Ras in HRASV12 cells | inhibition, % (concentration not given with the values) | BJeLR (HRASV12) viability, CellTiter-Glo ATP luminescence, 48 h; reference of the scale not given here | 300,000 compounds, 0.17% hits | AID 1554, 2009;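 active means replicate mean above 50%; inconclusive means above 50% but judged a plate artefact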;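 further: 50 nL library stock added to about 25 µL; numbers are from one replicate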
RN4220 kill = growth inhibition of S. aureus RN4220, primary screen, OD600; 16 h; 330,000 compounds, 0.33% hits; inhibition, % (test concentration not listed); AID 1259311, 2017;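 active means z-score of -3 or lower and OD600 up to 0.18 on both plates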;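 further: plate controls were untreated cells for no effect and reference antibiotic for full effect; stock transfer was 100 nL into about 80 µL; one replicate is shown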
PrP 5UTR inh = inhibition of PrP 5' UTR reporter expression | cell-based PrP 5' UTR mRNA reporter, plate reader | inhibition, % (test concentration not listed) | 340,000 compounds, 0.35% hits | AID 488862, 2010;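 active means every replicate at 50% or more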;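 further: 0 = median of the neutral control wells; tested in H4 reporter cells; numbers are from one replicate; inactives centre near -14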
Mtb hypoxia rep growth = further read-out of Mtb hypoxia rep, marked with its call; growth inhibition, %; measured here: M. tuberculosis growth (absorbance);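 0% = vehicle and 100% = reference antibiotic; read after six days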
* hit, by the source's call; ? = inconclusive; / = no result given. No enrichment for hits; 4.1% or so of the library scored in one or more.

#1 O=C(NC1CCCc2ccccc21)c1ccccc1 (stereo not given)
#2 CCCCCC(=O)Oc1cccc(N2C(=O)C3CCCCC3C2=O)c1 (stereo not given)
#3 CN1CC(=O)N2C(c3cccc([N+](=O)[O-])c3)c3[nH]c4ccccc4c3C[C@H]2C1=O (stereo not given in full)
#4 O=C1C=C(N2CCN(C(=O)c3ccccc3)CC2)C2(CCCCC2)O1
#5 Cc1ccc(S(=O)(=O)N(CC(=O)NC2CCCCCC2)c2ccccc2F)cc1
#6 CC(=O)N=c1c(C#N)cc2c(=O)n3ccccc3nc2n1Cc1ccccc1
#7 O=C(O)CCCCCNC(=O)c1cccc(Br)c1
#8 Cc1c(Cl)cccc1NC(=S)Nc1ccccn1
entry no.	1	2	3	4	5	6	7	8
Autofluor counter	2581	3321	3678	2935	15565	2676	9734	3976
Mtb hypoxia rep	/	0.5	-7.4	14.5	6.5	2.1	2.8	25.0
Mtb hypoxia rep growth	/	2.6	2.7	16.0	8.6	4.2	-4.5	19.6
ugtP null kill	-2.2	-4.6	-3.2	1.0	13.2	-4.3	-5.4	-0.8
BJeLR lethal	9.3	6.3	10.6	11.7	-6.6	2.1	-7.0	-7.3
RN4220 kill	8.2	3.5	3.0	-10.2	8.1	-2.5	3.9	4.4
PrP 5UTR inh	-13.2	-23.9	-16.8	-10.4	-8.7	-11.6	-25.6	-13.4

#9 CN(C)CCN=Cc1c(O)n(Cc2ccc3c(c2)OCO3)c(=O)c2ccccc12
#10 O=S(=O)(Nc1ccc(N2CCOCC2)cc1)c1ccccc1
#11 O=C(OCC(=O)N1c2ccccc2Sc2ccccc21)c1cccnc1
#12 CCC(=O)NCCN1CCN(C(=O)CC)CC1
#13 C/C(=N\NC(N)=O)c1ccccc1
#14 Cc1ccc2c(c1)c1nnc(SCC(=O)Nc3ccccc3C(F)(F)F)nc1n2CC(=O)O
#15 N#Cc1c(N2CCOCC2)nc(N2CCCCC2)c2c1CCN(C1CCCCC1)C2
#16 Cc1ccc(/C=C(\NC(=O)c2ccccc2)C(=O)OCc2ccccc2)cc1
entry no.	9	10	11	12	13	14	15	16
Autofluor counter	3442	3391	4651	2086	4823	4712	/	2508
Mtb hypoxia rep	4.4	2.5	10.6	/	/	-6.5	/	-6.9
Mtb hypoxia rep growth	7.4	4.4	5.5	/	/	-4.8	/	4.0
ugtP null kill	1.1	-0.4	8.2	2.9	/	5.1	11.0	5.7
BJeLR lethal	4.6	-8.7	-8.1	-4.7	-0.3	0.8	0.2	7.4
RN4220 kill	-0.6	-1.0	-5.7	3.6	/	2.2	-0.6	0.4
PrP 5UTR inh	-15.0	7.7	-26.3	-25.3	72.3*	-6.0	/	-16.9

4 entries out of the list, ordered by heavy-atom count, rising:
#13 C/C(=N\NC(N)=O)c1ccccc1
#12 CCC(=O)NCCN1CCN(C(=O)CC)CC1
#11 O=C(OCC(=O)N1c2ccccc2Sc2ccccc21)c1cccnc1
#16 Cc1ccc(/C=C(\NC(=O)c2ccccc2)C(=O)OCc2ccccc2)cc1
entry no.	13	12	11	16
Autofluor counter	4823	2086	4651	2508
Mtb hypoxia rep	/	/	10.6	-6.9
Mtb hypoxia rep growth	/	/	5.5	4.0
ugtP null kill	/	2.9	8.2	5.7
BJeLR lethal	-0.3	-4.7	-8.1	7.4
RN4220 kill	/	3.6	-5.7	0.4
PrP 5UTR inh	72.3*	-25.3	-26.3	-16.9

Additional structures
#17 O=C(Cc1ccccc1)Nc1nccs1
#18 O=C(Cn1cc([N+](=O)[O-])ccc1=O)NC1CCCCC1
#19 Cn1c2c(c(=O)n(C)c1=O)C(c1cccc([N+](=O)[O-])c1)Nc1ccccc1O2 (stereo not given)
#20 COC(=O)c1[nH]c2ccc(F)cc2c1NS(=O)(=O)c1ccc(OC)cc1
#21 COc1cccc(C2/C(=C(\O)c3ccc(OC)c(OC)c3)C(=O)C(=O)N2c2cc(C)on2)c1 (stereo not given)
#22 CCOC(=O)N1CCC(NC(=O)CS(=O)(=O)Cc2nc(-c3ccc(C)cc3)oc2C)CC1
#23 C=CCNc1nc(NCCO)nc(N2CCCC2)n1
#24 Cc1ccnc2nc(C(=O)NCc3cccs3)nn12
entry no.	17	18	19	20	21	22	23	24
Autofluor counter	3758	?	4288	2673	2773	5784	3890	2795
Mtb hypoxia rep	0.5	8.4	/	7.4	/	3.7	13.6	/
Mtb hypoxia rep growth	6.5	11.3	/	4.7	/	10.4	-0.1	/
ugtP null kill	10.6	-0.9	-9.6	-12.8	2.5	-6.0	-1.0	3.0
BJeLR lethal	-3.8	/	-0.3	32.4	/	11.8	-6.1	-3.2
RN4220 kill	4.8	-1.7	-0.7	5.3	1.8	-10.8	7.0	4.3
PrP 5UTR inh	-17.1	-7.6	-37.5	-21.8	-22.9	-3.6	-18.8	-15.4

#25 CSc1nsc(SCC(=O)Nc2ccc3c(c2)OCCO3)n1
#26 Cc1nc(C)n(CC(=O)N2CCCC(C(=O)c3ccc(C(F)(F)F)cc3)C2)n1 (stereo not given)
#27 COC(=O)c1ccc(C(O)=C(C#N)c2nc3ccccc3s2)cc1
#28 Cc1ccc(N=CC=C2OC(C)(C)C(C)(C)O2)c(C)c1
#29 CC(=O)O[C@@]12CO[C@@H]1C[C@H](O)[C@@]1(C)C(=O)[C@H](O)C3=C(C)[C@@H](O)C[C@@](O)([C@@H](OC(=O)c4ccccc4)C12)C3(C)C (stereo not given in full)
#30 C/C(=N/NC(=O)CN1CCN(S(=O)(=O)c2ccc(Br)cc2)CC1)c1ccncc1
#31 COc1ccc(Cl)cc1N(CC(=O)NCC(C)C)S(=O)(=O)c1ccc(C)c([N+](=O)[O-])c1
#32 Cc1ccc(C)c(OCC(=O)NCC2COc3ccccc3O2)c1 (stereo not given)
entry no.	25	26	27	28	29	30	31	32
Autofluor counter	3615	2188	/	2168	5042	4984	2625	7050
Mtb hypoxia rep	9.5	7.1	11.6	8.4	/	/	-4.5	4.7
Mtb hypoxia rep growth	6.8	6.9	5.7	5.6	/	/	-5.3	7.9
ugtP null kill	3.1	8.8	79.9	-4.9	-2.6	/	-0.4	1.0
BJeLR lethal	-8.4	1.8	/	-4.1	7.6	4.0	2.9	/
RN4220 kill	-0.7	4.2	79.1	4.9	1.9	/	9.2	1.4
PrP 5UTR inh	-51.0	-30.8	/	-5.7	0.6	-9.5	14.2	-12.3

#33 CCC1(CC)C(=O)C=CNC1=O
#34 O=C(O)CCCN1C(=O)C2C3CC(C2C1=O)C1C(c2ccccc2)c2sc(=O)[nH]c2SC31 (stereo not given)
#35 Cc1cc(C)cc(NC(=O)Cn2cc3c(n2)CCCCC3)c1
#36 O=c1[nH]c(=S)n(-c2cccc(C(F)(F)F)c2)c(O)c1C=NCCN1CCNCC1
#37 COc1c(CC=C(C)C)cc(C2CC(=O)c3c(O)cc(O)cc3O2)c(CC=C(C)C)c1O (stereo not given)
#38 Cc1c(OCC(=O)N[C@@H](Cc2ccccc2)C(=O)O)ccc2c1oc(=O)c1ccccc12
#39 O=C(O)CCSCC(=O)c1ccc2c(c1)OCCO2
#40 Cc1ccc(NC(=O)CSc2nnc(Cc3cccn3C)n2-c2ccc(F)cc2)c(C)c1
entry no.	33	34	35	36	37	38	39	40
Autofluor counter	5784	2198	/	3125	/	5210	2500	5243
Mtb hypoxia rep	0.5	11.1	/	4.1	/	/	/	/
Mtb hypoxia rep growth	-4.3	4.4	/	3.2	/	/	/	/
ugtP null kill	1.5	-0.8	10.6	4.3	-22.5	-1.8	8.5	1.0
BJeLR lethal	/	-4.8	-6.5	10.7	-1.6	8.1	4.0	-4.8
RN4220 kill	1.8	0.8	-0.1	0.2	6.5	5.4	-0.1	1.5
PrP 5UTR inh	-10.0	-4.3	/	-7.7	/	-6.4	11.1	-15.3

#41 COc1cc(COCC(O)CN2CCN(Cc3ccccc3)CC2)cc(OC)c1OC (stereo not given)
#42 CS(=O)(=O)N(CC(=O)NCc1ccccc1Cl)C1CCCCC1
#43 CCOc1cc(C=NNC(=O)COc2ccccc2C)ccc1OC(=O)c1cccs1
#44 Oc1ccccc1-c1ccn[nH]1
#45 CCc1ccc(NC(=O)CSc2nnc(-c3ccccn3)n2C)cc1
#46 C=CCn1c(O)c(C=Nc2ccc(N(CC)CC)cc2)c(=O)[nH]c1=O
#47 O=C(CCc1ccccc1)Nc1nnc(-c2cccs2)o1
#48 CC(C)c1ccccc1NC(=O)COC(=O)CNC(=O)c1ccc(Br)cc1
entry no.	41	42	43	44	45	46	47	48
Autofluor counter	4602	2609	/	3473	19708*	8838	5402	2502
Mtb hypoxia rep	13.7	12.7	4.3	7.6	2.3	1.0	-1.6	13.3
Mtb hypoxia rep growth	1.0	6.7	-1.5	3.1	4.5	5.3	4.2	6.6
ugtP null kill	3.8	6.3	8.2	0.6	9.7	11.8	16.8	4.3
BJeLR lethal	-8.0	-13.2	/	/	-3.9	6.0	8.8	3.3
RN4220 kill	5.6	8.0	7.3	3.0	1.5	6.7	-1.8	11.2
PrP 5UTR inh	-5.4	-18.0	/	-26.0	-18.9	-7.5	-62.3	0.0

#49 Cc1nnc(NC(=O)CSc2nc3c(c(=O)n2C)SC(C)C3)s1 (stereo not given)
#50 O=C(c1cccc(C(F)(F)F)c1)N1CCN(C2CCCCC2)CC1
#51 COc1cccc(/C=C2\Sc3ccc(C(=O)NCc4cccnc4)cc3N(C)C2=O)c1
#52 COc1ccc(/C=C/C(=O)NCCCN2CCCCCC2)cc1
#53 Cc1ccc(NC(=S)NN=Cc2c(Cl)cccc2Cl)c(C)c1
#54 COc1cccc(/C=N/NC(=O)c2cccc([N+](=O)[O-])c2)c1OS(=O)(=O)c1ccccc1
#55 c1ccc(-n2nnnc2CN2CCOCC2)cc1
#56 COc1ccccc1C(=O)N/C(=C\c1cn(S(=O)(=O)N(C)C)c2ccccc12)C(=O)NCCN1CCOCC1
entry no.	49	50	51	52	53	54	55	56
Autofluor counter	7215	11601	4738	4931	/	3598	2080	5070
Mtb hypoxia rep	-4.7	13.7	2.8	3.7	2.0	/	2.2	-1.2
Mtb hypoxia rep growth	11.8	11.1	7.3	7.5	3.9	/	-5.5	-4.1
ugtP null kill	7.6	7.3	23.4	5.8	39.3	/	0.5	6.1
BJeLR lethal	-7.0	13.4	2.3	-1.7	/	-1.5	-5.3	2.3
RN4220 kill	8.0	5.8	8.4	2.0	-9.9	/	2.4	3.8
PrP 5UTR inh	-30.8	-19.2	-22.1	-7.1	/	-80.3	-7.0	-4.8

#57 CCOc1ccc(N2C(=O)CC(N(O)c3ccccc3)C2=O)cc1 (stereo not given)
#58 CC(=O)SC1CC(=O)N(c2c(C)cccc2C)C1=O (stereo not given)
#59 O=C(CC1NCCc2ccccc21)Nc1ccccc1Cl (stereo not given)
#60 CCOC(=O)C1(Cc2ccccc2)CCN(Cc2cccn2-c2cccnc2)CC1
#61 CC(C)[C@H](NC(=O)C1CCN(S(=O)(=O)c2ccccc2)CC1)C(=O)NCc1ccc(F)cc1
#62 CCc1ccc(C2C(C#N)=C(N)SC(N)=C2C#N)cc1
#63 COC1CCCN(C(=O)c2ccc(OC3CCN(CCc4ccccc4)CC3)cc2)C1 (stereo not given)
#64 O=C(O)CCNC(=S)Nc1cccc(F)c1
#65 CCCn1cc(CN2CCC(n3nccc3NC(=O)CCOc3ccccc3)CC2)c(C)n1
#66 Cc1nn(-c2ccccc2)c(C)c1C=NNC(=O)CSc1nnc(-c2ccccc2)n1-c1ccc(Cl)cc1
entry no.	57	58	59	60	61	62	63	64	65	66
Autofluor counter	4484	3138	3771	5135	5946	14351	3168	5400	5237	/
Mtb hypoxia rep	/	10.0	1.2	0.1	0.2	-1.2	-10.0	-1.9	-1.9	-3.9
Mtb hypoxia rep growth	/	7.8	-2.0	3.1	-6.0	11.2	0.2	1.2	-4.1	5.1
ugtP null kill	-0.4	15.2	6.0	2.1	11.0	-9.5	-2.1	10.6	6.5	1.9
BJeLR lethal	2.0	-2.4	1.6	8.2	9.6	13.0	10.1	-12.1	1.1	/
RN4220 kill	0.7	9.1	1.7	4.9	-0.5	1.0	3.3	3.4	1.3	0.9
PrP 5UTR inh	-23.2	-49.4	-30.6	-6.3	-4.8	-21.4	-9.3	-16.6	-11.0	/
